# Cruzain inh Det – blocks cruzain activity in presence of Triton detergent; purified cruzain, Z-FR-AMC fluorescence, 0.01% Triton; Potency, µM, for inactives: max response, negative = inhibition, most hits filed as inhibitors; 200,000 tested, 0.43% active; active = well fitted curve in the direction sought with a large enough effect; inconclusive = small, poorly fitted or top-dose-only effect, or another doubt; inactive = no such curve, though single readings can be large; an effect the other way counts as inactive or inconclusive;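 note: plate controls were neutral wells for no effect and buffer without enzyme for full effect; nearly all actives have a fitted effect of over 40% in size; top concentration of the series not given in the record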
# Target sequence (P25779 123-467 limits assumed): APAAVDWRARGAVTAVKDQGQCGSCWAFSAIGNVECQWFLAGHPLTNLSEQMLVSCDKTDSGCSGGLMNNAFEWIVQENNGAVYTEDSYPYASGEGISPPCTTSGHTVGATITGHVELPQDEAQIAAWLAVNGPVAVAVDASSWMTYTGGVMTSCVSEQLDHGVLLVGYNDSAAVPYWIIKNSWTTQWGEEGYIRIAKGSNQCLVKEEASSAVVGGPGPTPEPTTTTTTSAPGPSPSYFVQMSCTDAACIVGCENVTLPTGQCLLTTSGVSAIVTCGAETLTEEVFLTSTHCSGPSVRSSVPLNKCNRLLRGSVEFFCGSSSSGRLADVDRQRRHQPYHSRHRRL
#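 Cysteine protease activity tested under reducing, mildly acidic conditions (100 mM sodium acetate pH 5.5, 5 mM DTT) plus 0.01% Triton X-100. Cruzain 1.5 nM; substrate Z-FR-AMC 2 uM; 15 min compound preincubation at room temperature.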
# RE007 growth inh – less growth of the S. pombe RE007 Vpr strain; S. pombe RE007 Vpr strain, BacTiter-Glo ATP luminescence, 24 h; control for the full effect not named in the record; Potency, µM (series often up to 92.2 µM), for the others: at the highest dose activity change, negative = less growth; 360,000 tested, 0.21% active; AID 651644; active = well fitted falling curve with a large enough effect; inconclusive = small, poorly fitted or top-dose-only effect; inactive = no such curve, though single readings can be large or run the other way;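 note: % is set by controls: 0 for no effect and ±100 for the full control effect; nearly all actives have a fitted effect of over 50% in size; the assay follows cell death caused by Vpr and the record does not say whether a fall means rescue or toxicity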
#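 Fission yeast RE007 carrying one integrated HIV-1 vpr copy, seeded at OD 0.01 in PMG+AL medium with 23 nL pinned compound. Grown 24 h at 30 degrees; viability read by BacTiter-Glo luminescence after 5 min.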
# 2A StopGo – lowers the luciferase signal of an FMDV 2A StopGo reporter; AID 1159524; human cells with a luciferase reporter of 2A StopGo recoding; control for the full effect not named in the record; 410,000 tested, 1.2% active; Potency, µM (series often up to 57.9 µM), for inactives: top-dose signal change, negative = less light; active = well fitted falling curve with a large enough effect; inconclusive = small, poorly fitted or top-dose-only effect; inactive = no such curve, though single readings can be large or run the other way; tested in HEK293T cells; note: % is set by controls: 0 for no effect and ±100 for the full control effect; nearly all actives have a fitted effect of over 45% in size; luciferase light after 4 h
# Lassa entry inh – Lassa virus entry inhibition; 300,000 tested, 1.2% active; Lassa virus pseudotype entry inhibition, cell reporter; control for the full effect not named in the record; Potency, µM (titrated, usually from 37.9 µM), without a hit: at the highest dose activity change, negative = inhibition, hits mostly inhibitors; AID 540256; active means well fitted inhibition curve with a large enough effect; inconclusive means small, poorly fitted or top-dose-only effect, or effect the other way; inactive means flat fitted curve, though single readings scatter; tested in HEK293 cells; note: % is set by controls: 0 for no effect and ±100 for the full control effect; nearly all actives have a fitted effect of over 50% in size; luciferase read-out
# SARS PLpro yeast – inhibitors of SARS-CoV papain-like protease in yeast; S. cerevisiae expressing SARS-CoV PLpro, growth rescue; control for the full effect not named in the record; Potency, µM (series often up to 32.9 µM), without a hit: at the highest dose activity, positive = growth rescue; 330,000 tested, 0.19% active; AID 485353; note: 0% is about no effect; nearly all actives have a fitted effect of over 55% in size; growth read by luminescence after 48 h
# NS1 inh – inhibitors of influenza NS1 protein function. 270,000 tested, 0.4% active. S. cerevisiae slowed by influenza A NS1, growth recovery by OD600. AID 2326. Potency, µM (titrated, usually from 46.1 µM), for the others: top-dose activity, positive = more growth; note: actives are rising curves; nearly all actives have a fitted effect of over 50% in size
#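 In this qHTS, NS1 from influenza A is expressed in budding yeast, where it slows growth. Cells are switched from glucose to 2% galactose medium (pH 6.0, -URA), treated with compound, and growth recovery is read at OD600.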
# Cruzain inh noDet – inhibitors of Trypanosoma cruzi cruzain without detergent; 200,000 tested, 2.3% active; purified cruzain, Z-FR-AMC fluorescence, no detergent; Potency, µM, for the others: max response, negative = inhibition, usual class: inhibitors; AID 1476; P25779; active = well fitted curve in the direction sought with a large enough effect; inconclusive = small, poorly fitted or top-dose-only effect, or another doubt; inactive = no such curve, though single readings can be large; an effect the other way counts as inactive or inconclusive;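 note: plate controls were enzyme without inhibitor for no effect and buffer without enzyme for full effect; nearly all actives have a fitted effect of over 40% in size; top concentration of the series not given in the record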
#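 Detergent-free condition (0.00005% Triton X-100) in acetate buffer pH 5.5 with DTT. 1.5 nM enzyme and compound were pre-mixed 15 min, then 2 uM Z-FR-AMC substrate added; reaction progress from fluorescence change between first and third reads (60 s).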
# Marburg entry inh – inhibitors of Marburg virus binding or cell entry; Potency, µM (titrated, usually from 37.8 µM), without a hit: at the top dose activity change, negative = inhibition, usual class: inhibitors; 300,000 tested, 1.8% active; Marburg virus pseudotyped entry inhibition, cell reporter; control for the full effect not named in the record; about a third of the inactives were read at about 46 µM; AID 540276; active = well fitted inhibition curve with a large enough effect; inconclusive = small, poorly fitted or top-dose-only effect, or effect the other way; inactive = flat fitted curve, though single readings scatter; tested in HEK293 cells; about a fifth of its hits are not listed in these tables; note: % is set by controls: 0 for no effect and ±100 for the full control effect; luciferase read-out
# An asterisk follows results filed as active; ? = inconclusive; . = not tested or not shown; & = joins results of further samples; ! = not confirmed by another sample; [ ] = remark or other dose. Unless noted, calls come from the whole dose curve; as a rule, active means well fitted rising curve with a large enough effect; inconclusive means small, poorly fitted or top-dose-only effect; inactive means no such curve, though single readings can be large or run the other way. Potency is the fitted concentration of half-maximal effect. An unsorted share of the library; 4.7% or so of the library scored in one or more.
SMILES,Cruzain inh Det,RE007 growth inh,2A StopGo,Lassa entry inh,SARS PLpro yeast,NS1 inh,Cruzain inh noDet,Marburg entry inh
CC(=O)CCC(=O)OCC(=O)c1ccc(C(F)(F)F)cc1,.,-19%,7%,.,1%,6%,.,.
COc1ccccc1CCNC(=O)C1CCN(c2nc3ccccc3nc2C(F)(F)F)CC1,2.5%,.,-24%,-25%[46.1 µM],.,.,-2%,.
O=C(Nc1cccc(S(=O)(=O)NC2=NCCCCC2)c1)c1cc(-c2ccc(Cl)cc2)nc2ccccc12,-5.2%,-1%,-6%,?,-5%,11µM*,?,?
Cc1ccc(NC(=O)c2cc(S(=O)(=O)N3CCCC3)cn2C)cc1C,.,-1%,-4%,.,2%,2%,.,.
O=C(Nc1ccc(Cl)cn1)c1ccc(Oc2ccccc2)cc1,.,-3%,?,?,-16%,-29%,.,?
CC(C)CN(CC(C)C)S(=O)(=O)N1CCC(C(=O)NCc2ccc3c(c2)OCO3)CC1,.,-7%,-11%,7%,3%,.,.,-22%
O=C(CCN1N=C(c2ccccc2)CCC1=O)NCCc1ccc(Cl)cc1,-3.1%,.,-4%,8%[46.1 µM],.,.,14%,.
O=C(NCCC(=O)N(CCc1ccccc1)Cc1ccccc1)c1ccccc1Cl,.,-4%,-3%,-11%,-2%,.,.,?
COc1ccc(C(O)C(CN2CCOCC2)c2ccccc2)cc1F (stereo unspecified),0.8%,-1%,5%,-2%,5%,-8%,0%,6%
Cc1ccc(-c2nc(C#N)c(N3CCC(C(N)=O)CC3)o2)cc1,.,5%,-5%,?,10%,-6%,.,10%[46.1 µM]
Cc1ccc(-c2cn3c(n2)sc2cc(C(=O)NCc4cccs4)ccc23)c(C)c1,-2.9%,.,-30%,19%[46.1 µM],.,.,11%,.
COc1ccc(CNC(=O)CCN2C(=S)NC(C)(C)CC2C)cc1 (stereo unspecified),.,5%,-12%,16%,-1%,.,.,?
O=C(Nc1ccccc1F)c1ccc([N+](=O)[O-])s1,.,?,24%,?,-10%,.,.,?
CC1CN(S(=O)(=O)c2ccc(C(=O)NC3CCCCC3)cc2)CC(C)O1 (stereo unspecified),.,6%,-19%,?,1%,.,.,-27%
Cc1nn(-c2ccc(F)cc2)c(Cl)c1/C=N/NC(=O)c1cccc(S(=O)(=O)N2CCCC2)c1,-8.3%,20%,-20%,0%,15%,2%,-9%,?
COc1ccc(OC)c(NC(=O)C2CCN(c3ncccn3)CC2)c1,-1.5%,12%,-3%,-3%,-17%,-8%,2%,12%
Cc1[nH]c2ccccc2c1/C=N\NC(=O)c1ccco1,.,-6%,11%,.,3%,0%,.,.
O=C(O)C1CCN(C(=O)COc2ccc(Br)cc2)CC1,.,4%,-22%,20%[46.1 µM],-3%,.,.,-1%[46.1 µM]
O=C(O)Cc1sc(-c2ccccc2Cl)nc1-c1ccccc1,.,-2%,3%,-20%[46.1 µM],1%,.,.,16%[46.1 µM]
O=C(N/N=C/c1ccsc1)c1cc(-c2cccs2)nc2ccccc12,-6.4%,0%,-12%,-9%,-14%,25%,?,?
CCC(c1nnnn1Cc1ccco1)N(CCN1CCOCC1)Cc1cc2cc(C)ccc2[nH]c1=O (stereo unspecified),4.0%,3%,-11%,-15%,5%,5%,-3%,-21%
Cc1ccc(-n2c(C)cc(C)c(C#N)c2=O)cc1C,.,20%,0%,9%,0%,5%,.,30%[46.1 µM]
CCOC(=O)c1ccc(N2C(=O)c3n[nH]c(-c4ccco4)c3C2c2cccc(F)c2)cc1 (stereo unspecified),-11%,.,?,?,.,.,-21%,?
Cc1c(C(=O)O/N=C(\N)c2ccccn2)cccc1[N+](=O)[O-],.,-19%,-85%,?,-3%,-43%,.,?
Clc1ccc(Cn2c(CN3CCCC3)nc3ccccc32)cc1,7.3%&-6.8%&-2.1%,.,.,?,4%,2%&-7%,-1%&10%&-7%,3.2µM*!
CC(=O)Nc1ccc(S(=O)(=O)NCC(=O)OCc2ccccc2)cc1,-1.7%,-11%,6%,-21%,-2%,15%,-7%,?
O=c1nc2ccccc2c(NS(=O)(=O)c2ccc(Cl)cc2)n1-c1ccccc1,-3.2%,7%,43%[activator],13%,-4%,2%,-13%,14%[46.1 µM]
CCn1c(SCC(=O)Nc2ccc3c(c2)OCO3)nc2c(c1=O)SC(C)C2 (stereo unspecified),-6.6%,-18%,-5%,.,-20%,-109%,-12%,.
COc1ccc(C(=O)Nc2cccc(C(C)=O)c2)cc1S(=O)(=O)N1CCOCC1,-0.3%,14%,0%,-2%,1%,-2%,-5%,?
Cc1cc(=O)oc(C)c1C(=O)Nc1c(C)n(C)n(-c2ccccc2)c1=O,-4.7%,14%,6%,16%,0%,16%,-4%,?
COc1cccc(C(C(=O)NC2CCCC2)N(Cc2ccc(C)cc2)C(=O)c2ccco2)c1OC (stereo unspecified),-3.6%,1%,9%,?,8%,10%,24%,?
O=C(Nc1ccccc1N1CCCCC1)c1ccc(Cl)c([N+](=O)[O-])c1,.,-12%,?,30%,1%,.,.,1%[14.2 µM]
O=C(CCNS(=O)(=O)c1ccccc1C(F)(F)F)N1CCN(c2ccccc2O)CC1,.,-20%,-20%,3%,8%,.,.,14%
CC(=NN1CC(=O)NC1=O)c1ccc([N+](=O)[O-])o1,.,-14%,-21%,?,.,.,.,?
COc1ccc(Cl)cc1N1C(=O)C2CCCN2C1c1sccc1C (stereo unspecified),4.3%,-3%,-4%,-6%,18%,-8%,10%,1%
CCc1c(C)n([O-])c2c([n+]1=O)CCC2,1.7%,1%,-11%,?,0%,9%,-2%,-9%
Cc1cccc(-c2nc(CCNC(=O)c3ccccc3Br)cs2)c1,-12%,.,-13%,-3%[46.1 µM],.,.,-6%,.
C[Se]C[C@H](N)C(=O)O,4.7%,.,.,?,.,-19%,8%,-15%&6%&6%
CCOc1ccccc1CNS(=O)(=O)c1cc(-c2onc(C)c2C)ccc1OC,-3.4%,.,54%[activator],-15%[46.1 µM],.,.,-1%,.
CN1C(=O)[C@H]2[C@@H](C3CC3)N3C(=O)CN(CC4CC4)C(=O)[C@@]3(C)[C@H]2C1=O,.,-15%,0%,.,10%,7%,.,.
CC(C)CCNC(=O)c1onc(CSc2ccncc2)c1C(=O)NCCC(C)C,.,11%,0%,.,-1%,3%,.,.
O=C(N1CCOCC1)N1CCN(c2ccccn2)CC1,3.3%,7%,-12%,-10%,2%,1%,1%,-14%
COC(=O)c1ccc2c(=O)n(-c3ccc(OC)cc3)c(=S)[nH]c2c1,.,0%,-25%,-16%,0%,.,.,?
COc1cc(CC(NC(C)=O)C(=O)NC2CCN(C(=O)Nc3ccccc3Cl)CC2)cc(OC)c1 (stereo unspecified),.,-9%,-13%,.,0%,6%,.,.
c1ccc(Nc2nc(N3CCCCC3)nc(N3CCCCC3)n2)cc1,-9.2%,8%,-8%,-26%,-2%,-47%,8%,?
COc1ccc(N(CC(=O)NCCSc2ccccc2)S(=O)(=O)c2ccccc2)c(OC)c1,.,-19%,-17%,?,5%,.,.,?
O=C(O)CCN1CCc2ccccc2C1c1cccs1 (stereo unspecified),.,-9%,-4%,-8%,0%,.,.,-6%[46.1 µM]
CCCCn1c(N)c(Sc2ccccc2[N+](=O)[O-])c(=O)[nH]c1=O,.,6%,-3%,-2%[46.1 µM],5%,5%,.,-7%[46.1 µM]
Cc1ccc(-c2c[n+](CC(=O)Nc3ccccc3)c3n2CCC3)cc1,.,8%,1%,-6%,0%,1%,.,4%
COc1ccc(S(=O)(=O)N2CCCC(C(=O)NCc3cccnc3)C2)cc1OC (stereo unspecified),.,-6%,-14%,28%,2%,.,.,0%[46.1 µM]
# Next structures:
SMILES,Cruzain inh Det,RE007 growth inh,2A StopGo,Lassa entry inh,SARS PLpro yeast,NS1 inh,Cruzain inh noDet,Marburg entry inh
Nc1c(C(=O)C2CC2)sc2nc(-c3ccccc3)cc(C(F)(F)F)c12,-13%,21%,23%,-14%,-22%,2%,0%,?
COc1ccc(/C=C/C(=O)NCc2cn(C)nc2C)cc1COc1ccc(Br)cc1,-5.9%,9%,-8%,-2%,?,23%,?,-20%
CCOc1ccc(NC(=O)CCN2CCN(c3ccccc3F)CC2)cc1,3.1%,1%,-4%,?,-4%,-6%,1%,-21%
CCCCn1c(N)c(N(CCOC)C(=O)c2ccc(C)c(S(=O)(=O)N3CCCCC3)c2)c(=O)[nH]c1=O,.,5%,8%,-7%[46.1 µM],1%,.,.,6%
COc1ccc(NC(=S)N=Nc2c(O)[nH]c3ccccc23)cc1,.,-7%,0%,.,-3%,0%,.,.
CCOC(=O)c1ccc(NCc2ccncc2)cc1,.,22%,0%,16%,.,.,.,-4%
COc1ccc(OCC(=O)Nc2ccc(C)c(S(=O)(=O)N(C)C)c2)cc1,.,2%,-2%,?,-1%,.,.,-23%[46.1 µM]
Fc1ccc(NC(=S)NC23CN4CN(CN(C4)C2)C3)cc1,-0.5%,8%,-9%,7%,-4%,13%,1%,19%
O=C(C1CCN(Cc2ccccc2)CC1)N1CCN(C/C=C/c2ccccc2)CC1,-1.2%,0%,?,?,-9%,-10%,6%,14µM*
CCN1CCN(C(=O)c2ccc3c(c2)c(C)c(C)n3Cc2ccccc2)CC1,.,-6%,1%,-11%,1%,.,.,1%
Cc1c(F)cccc1NS(=O)(=O)c1ccc(N2CCCC2=O)cc1,.,4%,-5%,11%,.,.,.,12%[46.1 µM]
COc1ccc(F)cc1C(=O)C1CCCN(C(=O)CSc2ccccn2)C1 (stereo unspecified),.,21%,-10%,.,0%,-8%,.,-2%[46.1 µM]
COc1ccc(N2CCN(C(=O)c3sc4ncn(CC(=O)N5CCCCC5C)c(=O)c4c3C)CC2)cc1 (stereo unspecified),.,4%,-20%,.,0%,-9%,.,.
O=C(N/N=C1\C/C(=N\NC(=O)c2ccncc2)c2ccccc21)c1ccncc1,.,-19%,-20%,.,-6%,1%,.,.
Cc1ccc(Cl)cc1N1CCN(C(=O)c2ccc3c(c2)N(Cc2ccccc2F)C(=O)c2ccccc2S3(=O)=O)CC1,1.4%,.,-21%,?,.,.,14%,?
COc1cccc(-c2cc(C(=O)Nc3ccc(F)cc3)[nH]n2)c1,-0.7%,.,28%,22%[46.1 µM],.,.,?,.

# Compound activity: PubChem BioAssay, National Center for Advancing Translational Sciences (NCATS)
